Screening results deposited in PubChem by National Center for Advancing Translational Sciences (NCATS).
VDR inh = inhibitors of human vitamin D receptor | Potency, µM, for inactives: max response, negative = inhibition, most hits filed as inhibitors | VDR-SRC2-3 peptide fluorescence polarization, 2 h | 0.93% of 400,000 active | P11473; active means well fitted inhibition curve with a large enough effect; inconclusive means small, poorly fitted or top-dose-only effect, or another doubt; inactive means no such curve, though single readings can be large or run the other way; further: series mostly up to about 120 µM
Target sequence (P11473 whole entry, looked up): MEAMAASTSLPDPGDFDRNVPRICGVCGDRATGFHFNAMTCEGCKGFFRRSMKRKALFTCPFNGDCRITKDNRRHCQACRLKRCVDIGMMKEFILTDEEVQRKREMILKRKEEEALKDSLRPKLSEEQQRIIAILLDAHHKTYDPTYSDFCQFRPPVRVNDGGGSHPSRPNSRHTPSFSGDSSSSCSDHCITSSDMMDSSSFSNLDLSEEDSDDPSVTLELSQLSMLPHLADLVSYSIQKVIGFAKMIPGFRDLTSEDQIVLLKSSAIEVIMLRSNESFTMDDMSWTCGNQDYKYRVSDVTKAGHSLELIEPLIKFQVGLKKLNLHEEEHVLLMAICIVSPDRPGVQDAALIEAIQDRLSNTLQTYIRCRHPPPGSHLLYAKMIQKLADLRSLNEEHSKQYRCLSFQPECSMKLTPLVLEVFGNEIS
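Compounds are added to VDR with labelled SRC2-3 coactivator peptide and held 2 h at room temperature. Inhibition of the VDR–peptide interaction is then read as a change in fluorescence polarization.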
The depositor's hits bear a star; ? = inconclusive; [ ] = remark or other dose. On the % scale 0 is the no-effect control and ±100 the full control effect; potency means the concentration at half of the fitted maximal effect. These rows are one share of the data, so the mix of outcomes need not match the whole.

compound | VDR inh
NC(N)=NCCC[C@H](N)C(=O)NCC(=O)N[C@@H](CC(=O)O)C(=O)O | 8%
COC(=O)c1ccccc1NC(=O)CCC(=O)N1CC(C)Oc2ccc(C)cc21 (stereo not given) | 0%
Cc1ccc(-n2nnnc2CNC(=O)c2ccc(F)cc2)cc1C | 11%
Clc1cccc(/C=N/Nc2nnc(Cl)c3ccccc23)c1 | -1%
Cn1c(O)c(C2=c3ccccc3=NC2=O)[nH]c1=S | 4%
COC(C(=O)Nc1ccnn1C1CCN(Cc2cnn(C(C)C)c2)CC1)c1ccccc1 (stereo not given) | -18%
CCOc1ccc(N2CC(C(=O)Nc3ccc(S(=O)(=O)N4CCCC4)cc3)CC2=O)cc1 (stereo not given) | 9%
N/C(COc1cccc(C(F)(F)F)c1)=N\NC(=O)c1cccnc1Oc1ccccc1 | -7%
O=C(NC(=S)NNC(=O)c1ccco1)c1ccc(F)cc1 | 23%
CC(C1CC1)N(Cc1ccccc1)C(=O)NC(=O)c1cccc(F)c1 (stereo not given) | 3%
O=C(Nc1cccc(F)c1)C1CCN(c2nnnn2-c2ccccc2)CC1 | -2%
CCOC(=O)CSc1nc(C)c(CC)c(C)c1C(N)=O | 7%
Cc1ccc(C(=O)NC(C)C2CC3CCC2C3)cc1 (stereo not given) | -2%
COC(=O)c1ccc(C(C(=O)NC2CCCCC2)N(CCc2ccccc2)C(=O)Cc2cccs2)cc1 (stereo not given) | -14%
C=CCn1c(SCC(=O)Nc2cccc(C)c2)nnc1-c1cnccn1 | 8%
COc1ccccc1CNC(=O)/C=C/c1ccc(S(=O)(=O)N2CCOCC2)cc1 | -5%
S=c1[nH]nc(NCCCN2CCOCC2)s1 | 89µM*
O=C1CC[C@H](C(=O)N[C@@H]2C[C@H]2c2ccccc2)N1 | 2%
CC1CCCCN1C(=O)CCS(=O)(=O)Cc1ccccc1 (stereo not given) | -10%
CCN1CCN(Cc2ccc(NC(=O)c3ccc(C)c(NC(=O)c4c[nH]c5cc(C(F)(F)F)ccc5c4=O)c3)cc2C(F)(F)F)CC1 | 70%[activator]
CN(C)/C=C/c1onc(-c2c(Cl)cccc2Cl)c1C#N | -20%
COc1ccc(S(=O)(=O)N2CCC(c3ccncc3)CC2)cc1Cl | 3%
C/C(=N\NC(N)=S)C1(C)CCCCC1 | -2%
CCCS(=O)(=O)N1CCC(C(=O)N2CCc3ccccc3C2)CC1 | -2%
CCOc1cc(C(=O)O)ccc1OCCOc1ccccc1 | -22%
COc1ccc(NS(=O)(=O)c2ccc(S(=O)(=O)N3CCCC3)cc2)cc1Cl | 1%
Cc1oc2ncn(C)c(=O)c2c1C(=O)N(Cc1ccccc1)C(C)C | 14%
CS(=O)(=O)Nc1ccc(C2=NN(S(C)(=O)=O)C(c3ccc4nccnc4c3)C2)cc1 (stereo not given) | 0%
CC(=O)N1CCc2cc(S(=O)(=O)NCCC(=O)N3CCN(c4ccccn4)CC3)ccc21 | 9%
CCOc1ccc(N2CC(c3nc4ccccc4n3Cc3ccccc3F)CC2=O)cc1 (stereo not given) | 2%
CCOC(=O)COc1ccc2c(c1)C(=O)CC1(CCN(C(C)=O)CC1)O2 | -1%
CC(C)c1csc(CN2CCC(N3CCC(C(=O)NCC4CCCO4)CC3)CC2)n1 (stereo not given) | -10%
COc1ccc(/C=N/n2c(C)nnc2C)c(OC)c1 | 14%
O=C(Cc1ccccc1Cl)N1CCN(c2ncccn2)CC1 | 9%
CCOC(=O)N1CCC(NC(=O)C2CCN(C(=O)c3cc4oc(C)cc4n3Cc3c(F)cccc3Cl)CC2)CC1 | -5%
CCOc1ccc(C(=S)N2CCCC2)c(OCC)c1 | ?
C[C@H](NC(=O)CCC1CCC(=O)N1)c1ccccc1 (stereo not given in full) | -23%
CCCn1c(=O)c(C(=O)NC(C)c2ccccc2)c(O)c2ccccc21 (stereo not given) | -22%
O=C(c1ccccc1)c1ccccc1C(=O)N1CCCC1 | 23%
COc1ccc2sc3ccccc3c(=O)c2c1 | 4%
Cc1c(O)c2cccnc2[nH]c1=O | 1%
C/C(CC(=O)Nc1cc(Cl)ccc1C)=N\NC(=O)C(=O)N1CCCC1 | -10%
COC(=O)c1cccc(NC(=O)Nc2ccc(Cl)cc2)c1 | 11%
O=C(Cn1ccccc1=O)c1ccc(Cl)cc1 | -6%
COc1ccc(C(=O)OCc2cc(=O)n3nc(-c4cccs4)sc3n2)cc1 | 22%
CS(=O)(=O)NCCCCCCNS(C)(=O)=O | 7%
ClC1(Cl)CC1CSc1nnc(-c2ccncc2)o1 (stereo not given) | 8%
COCCN(C(=S)Nc1ccc(OC)cc1)C1CCN(C(C)=O)CC1 | 3%
Cc1cc(C)n2cc(CSc3nc4ccccc4[nH]3)nc2n1 | -22%
COc1ccc(C2CC(c3ccc(Br)cc3)=NN2C(=S)Nc2ccccc2)cc1 (stereo not given) | 2%
C/C(Sc1nnc(Cc2ccccc2)o1)=C(\O)c1ccccc1 | -10%
CCOc1ccc(CCNC(=O)c2cn(CC)c3ccc(S(=O)(=O)N4CCCCCC4)cc3c2=O)cc1OCC | 2%
O=C(CNC(=O)c1cccs1)OCC(=O)c1ccc2ccccc2c1 | 0%
Cc1ccc(C(=O)NCCCC(=O)O)o1 | -2%
Cc1onc(-c2ccccc2Cl)c1C(=O)NCCN1Cc2ccccc2C1=O | 6%
COc1cc(NC(=O)c2ccc3c(c2)OCO3)ccc1NC(=O)c1ccco1 | -6%
O=C(CSc1n[nH]c(-c2cccnc2)n1)OC1CCCCC1 | ?
Cc1cc2oc(=O)cc(Cn3ccnc3)c2cc1O | 3%
O=C(OCCCOC(=O)c1ccc(O)cc1)c1ccc(O)cc1 | 7%
Cc1nc(N2CCOCC2)c2c(C(=O)N(C)c3ccccc3)c(C)oc2n1 | -5%

A different layout for part of the listing above:
COc1cc(NC(=O)c2ccc3c(c2)OCO3)ccc1NC(=O)c1ccco1
- VDR inh: -6%
O=C(CSc1n[nH]c(-c2cccnc2)n1)OC1CCCCC1
- VDR inh: ?
Cc1cc2oc(=O)cc(Cn3ccnc3)c2cc1O
- VDR inh: 3%
O=C(OCCCOC(=O)c1ccc(O)cc1)c1ccc(O)cc1
- VDR inh: 7%

Additional structures follow:
compound | VDR inh
Cc1ccc(NC(=O)CN2C(=O)c3ccccc3C2=O)cc1 | 5%
COc1cc(NC(=O)c2ccco2)c(OC)cc1NC(=O)Nc1ccc(Cl)cc1 | 10%
O=c1c(=O)n(-c2ccccc2)ccn1Cc1c(F)cccc1Cl | 11%
O=S(=O)(Cc1ccccc1)Cc1cnc(Cl)s1 | -9%
Cc1ccc(S(=O)(=O)NNC(=O)c2ccncc2)cc1 | 6%
CCN(CC)S(=O)(=O)c1ccc(C(=O)NNC(=O)c2csc(N3CCOCC3)n2)cc1 | -6%
CC(C)n1nnc2cc(C(=O)O)ccc21 | 8%
CC(C)CCNC(=O)CN1C(=O)COc2ccc(S(=O)(=O)N3CCOCC3)cc21 | -12%
COC(=O)c1ccccc1NC(=O)Nc1cc(C)ccn1 | 12%
COc1ccccc1OCCn1c(C(C)Oc2ccccc2)nc2ccccc21 (stereo not given) | 10%
CCN1CCN(C(=S)Nc2ccc(Cl)c(Cl)c2)CC1 | -6%
COc1ccc(NC(=O)COC(=O)c2ccc(OCc3ccc(Cl)cc3Cl)c(OC)c2)c(OC)c1 | -18%
O=C(c1ccco1)N1CCN(S(=O)(=O)c2ccc(Cl)cc2)CC1 | -10%
COC(=O)c1ccc(C(=O)OC)c(NS(=O)(=O)c2ccc(NC(C)=O)cc2)c1 | 18%
Cc1ccc(NC(=S)N2CCN(c3ncccn3)CC2)c(C)c1 | -13%
Cc1cc(Nc2cccc(Cl)c2Cl)n2ncnc2n1 | -16%
Cc1[nH][nH]c(=O)c1C(c1cc([N+](=O)[O-])ccc1O)c1c(C)[nH][nH]c1=O | -7%
Cn1nc(C(=O)NCCc2ccc(S(N)(=O)=O)cc2)c2ccccc2c1=O | 0%
COc1ccc2nc(N3C(=O)C(O)=C(C(=O)c4ccco4)C3c3ccccc3OC)sc2c1 (stereo not given) | 2%
O=C(COC(=O)c1cncc(Br)c1)NC1CCCCC1 | 16%
CC(C)c1c(C(=O)N/N=C/c2ccoc2)nnn1-c1nonc1N | 2%
COc1ccccc1C(=O)NCC(c1ccco1)N1CCc2ccccc21 (stereo not given) | 5%
O=C1/C(=C/c2ccncc2)SC(=S)N1Cc1ccccc1 | 71µM*
CS(=O)(=O)c1nc2ccccc2n1Cc1ccccc1 | 13%
Cc1nn(C)c(C(=O)Nc2ccc(Cn3cccn3)cc2)c1[N+](=O)[O-] | 3%
C[C@]1(C(=O)NCc2cc(F)cc(C(F)(F)F)c2)C=C[C@@H](Cc2ccccc2)N1C(=O)c1ccccc1 | -6%
CCCNC(=O)CCCCn1c(=S)[nH]c2c([nH]c3ccc(OC)cc32)c1=O | ?
Cc1ccc(CNS(=O)(=O)c2cc3c4c(c2)C(C)C(=O)N4CCC3)cc1 (stereo not given) | 6%
CC1=CC2=NC(=O)/C(=C/c3cccs3)C(=N)N2O1 | 6%
Cc1ccc2oc(=O)n(Cc3ccc(F)cc3)c2c1 | ?
COC(=O)c1c(NC(=O)C(C)C)sc(C(=O)N2CCOCC2)c1C | -19%
COC(=O)[C@@]1(C)[C@H]2C(=O)N(Cc3ccccc3)C(=O)[C@H]2[C@H]2CN=C(SCc3ccc(C#N)cc3)N21 | ?
CC(C)[C@@H](C(=O)N1CCNCC1)n1cc(CCO)nn1 | -19%
CN1CCCc2cc(C#N)c(=O)[nH]c21 | 9%
COc1cc(/C=C/C(=O)OC(C)C(=O)Nc2ccc(Cl)cn2)ccc1OC(F)F (stereo not given) | -18%
O=C(NC(C(=O)c1ccccc1)c1ccccc1)c1ccccc1 (stereo not given) | -1%
COc1ccc(N(CC(=O)NCc2ccc(C)cc2)S(=O)(=O)c2c(C)nn(C)c2C)cc1 | 3%
CCN(CC)C(=O)/C(=C\c1ccncc1)NC(=O)c1ccccc1 | 6%
O=C1CC(c2ccccc2)Cc2nc(N3CCc4ccccc43)ncc21 (stereo not given) | 2%
CCN(CC(=O)NCc1cccs1)S(=O)(=O)c1ccc(NC(C)=O)cc1 | -5%
COC(=O)c1ccccc1NC(=S)N(Cc1ccc2c(c1)OCO2)Cc1cc2ccc(C)cc2[nH]c1=O | -4%
CC(C)NC(=O)N1CC[C@@]2(CCCN(C(=O)c3ccncc3)C2)C1 | -2%
CCN(CCNc1ccc(Cl)cc1[N+](=O)[O-])C(=O)c1cc([N+](=O)[O-])c(N(C)C)cc1OC | 6%
O=C(Nc1ccccc1)c1nc[nH]c1C(=O)NCCCNC(=O)c1[nH]cnc1C(=O)Nc1ccccc1 | -5%
O=C(OCCCCN1C(=O)c2ccccc2C1=O)c1ccc(Br)o1 | -4%
Nc1cccc(C#Cc2ccc3c(=O)c4ccccc4oc3c2)c1 | -20%
COc1ccccc1C1CC(c2c(-c3ccccc3)c3cc(Cl)ccc3[nH]c2=O)=NN1S(C)(=O)=O (stereo not given) | 23%
CCOC(=O)c1ccc(N(C(=O)c2ccco2)C(C(=O)NC2CCCCC2)c2ccncc2)cc1 (stereo not given) | 8%
COc1ccc(/C=C/C(=O)NC2CCCCC2C)cc1 (stereo not given) | 16%
O=C(Nc1ccc(Cl)cc1)C1CC2CCCC(C1)C2=O (stereo not given) | 21%
CC(C)CN(CCNC(=O)CC1Oc2ccccc2NC1=O)CC(C)C (stereo not given) | -15%
Cc1c(C(=O)N2CCC(C)CC2)c(S(=O)(=O)N2CCN(c3cccc(Cl)c3)CC2)c(C)n1C | 1%
Cc1ccc(C2=C(O)c3ccccc3C(=O)C2=O)cc1 | 3%
CC1=C(C(=O)Nc2ccc(C)cc2C)C(c2ccc(C)o2)NC(=O)N1 (stereo not given) | -4%
COc1ccc(C2=C(C)C(=O)N(Cc3ccc(C(=O)NCc4cccc(C)c4)cc3)S2(=O)=O)cc1 | -3%
CC1=NC(C)(C)Cc2cc(C)c(C)cc21 | -8%
CCCN1C(C(=O)c2ccccc2)=C(OC(=O)c2ccc(OC)cc2)c2ccccc2S1(=O)=O | 6%
O=C(COc1ccc(Cl)cc1)NNC(=O)c1ccc2c(=O)n3c(nc2c1)CCC3 | -6%
O=C(Nc1ccc(N2CCOCC2)c(Cl)c1)c1ccc(Cl)cc1 | 3%
Cc1ccc(-c2nnc(N(C)C(=O)c3cccnc3)s2)cn1 | -10%

(next part)
compound | VDR inh
O=C(O)C1CN(CCCP(=O)(O)O)CCN1 (stereo not given) | -9%
Cc1ccccc1CN1CCN(CC(=O)NCc2ccccc2)C1=O | 16%
O=C1NC(c2ccccc2)Oc2ccccc21 (stereo not given) | -17%
CC(C)NC(=O)COC(=O)c1cncc(Br)c1 | 18%
O=C(NCC1CCCO1)C(=O)NCC(c1ccco1)N1CCN(c2ccccc2)CC1 (stereo not given) | 13%
CC1O[C@@H](OC2C(O)C(O)C(CO)O[C@H]2OC2C[C@]3(C)C(CC(O)C4[C@@H]([C@]5(C)CC[C@@H](C(C)(C)O)O5)CC[C@]43C)[C@@]3(C)CCC(O)C(C)(C)C23)C(O)C(O)C1O (stereo not given in full) | 0%

Quoted at random: 2 entries already listed.
compound | VDR inh
O=C(COC(=O)c1cncc(Br)c1)NC1CCCCC1 | 16%
Cc1ccc(-n2nnnc2CNC(=O)c2ccc(F)cc2)cc1C | 11%
